# Screens deposited in PubChem by Fisher Drug Discovery Resource Center.
# NPYLR7 ag: activates Aedes aegypti NPYLR7 receptor | actives 0.15% (n = 270,000) | AID 1259423 | HEK293T NPYLR7/Galpha15, GCaMP6s calcium fluorescence | activation, % at 10 µM; in the data active = activation above about 40%;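 note: 0% = vehicle and 100% = reference agonist at the receptor; some compounds past the cut are filed as inactive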
# NPYLR7 ag max-min: also measured in NPYLR7 ag; calls as there; activation, %; measured here: Max-Min RFU normalised activation; some inactives read as strong as hits;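 span of the calcium signal over five minutes; 0% = vehicle and 100% = native peptide agonist; compound fluorescence can raise it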
# Active calls of the source: *; & = joins results of further samples. An excerpt; count on the stated rates, not on these rows.
SMILES,NPYLR7 ag,NPYLR7 ag max-min
O=C(NC1CCCC1)c1cc(F)ccc1-n1ccnc1,9,6
CN(C)c1c(N)n(C)c(=O)n(CC(=O)Nc2cccc3nsnc23)c1=O,5,2
O=C(CN(Cc1ccc(F)cc1)C1CCCCC1)N1CCNC1=O,6,5
COc1nn2ccsc2c1C(=O)NCc1nc2ccccc2s1,15,12
COc1ccccc1C(=O)CN1C(=O)C(C)ON=C1c1cnccn1 (configuration not stated),8,6
Cc1ccc(C)c(CN2CCN(C(=O)c3cn(C(C)C)cc4c(=O)n(-c5ccccc5)nc3-4)CC2)c1,-5,-7
CCn1nnc2c(=O)n(CC(=O)NC)cnc21,0,25
O=[N+]([O-])c1nc(-c2ccccc2)n[nH]1,-10,-17
CC(C)CCNC(=O)c1cn(C2CCCC2)cc(C(=O)N2CCN(c3ccccc3O)CC2)c1=O,1,-4
C=CCOCC(O)CN(CCOC)Cc1c(C)nn(-c2ccc(F)cc2)c1Oc1cccc(F)c1 (configuration not stated),-2,4
N#Cc1cc2cc([N+](=O)[O-])ccc2n2c1nc1ccccc12,6,12
O=C(C1CC(=O)N(C2CCCC2)C1)N1CCN(S(=O)(=O)c2cccs2)CC1 (configuration not stated),9,10
Cc1ccc2nc(=O)c3cc(F)c(F)c(F)c3n2c1,5,5
NS(=O)(=O)Cc1ccc(NS(=O)(=O)c2cccc(Br)c2)cc1,1,0
Clc1ccc(-c2nnc(-c3ccc(Cl)cc3)nn2)cc1,4,0
CCC(C(=O)N1CCc2ccccc2C1c1ccccc1F)c1ccccc1 (configuration not stated),-3,7
Cc1cc(C)c(/C=C/C(=O)N(C)CC(=O)NC2CCS(=O)(=O)C2)cc1C (configuration not stated),2,1
Cc1cc(CN(C)CC(O)c2ccc(Br)cc2)no1 (configuration not stated),0,-1
COc1ccc(-c2onc(C)c2C(=O)N2CCC(Cc3ccc4c(c3)OCO4)CC2)cc1,2,4
CCN(CCCNC(=O)c1ccc2c(=O)n(-c3ccccc3)c(=O)[nH]c2c1)c1ccccc1,-7,-11
COc1cccc(CSc2nnc(NC(=O)c3ccc(Cl)cc3Cl)s2)c1,22,21
COc1ccc(C)cc1-c1csc(NC(=O)C2(C)Cc3ccccc3C(=O)O2)n1 (configuration not stated),1,9
CCc1nc2n(n1)C(=O)C(C(c1ccc(F)cc1)N1CCCC(C)C1)S2 (configuration not stated),-2,35
C#Cc1cccc(C(=O)N2CCCC(C(=O)c3ccc(C(F)(F)F)cc3)C2)c1 (configuration not stated),-1,-4
Cc1ccc2nc(-c3ccc(C(C)(C)C)cc3)c(Nc3c(C)cccc3C)n2c1,-4&3,-3&11

# Reprinted at random: 4 records from the list.
SMILES,NPYLR7 ag,NPYLR7 ag max-min
COc1nn2ccsc2c1C(=O)NCc1nc2ccccc2s1,15,12
CC(C)CCNC(=O)c1cn(C2CCCC2)cc(C(=O)N2CCN(c3ccccc3O)CC2)c1=O,1,-4
Cc1cc(C)c(/C=C/C(=O)N(C)CC(=O)NC2CCS(=O)(=O)C2)cc1C (configuration not stated),2,1
O=C(C1CC(=O)N(C2CCCC2)C1)N1CCN(S(=O)(=O)c2cccs2)CC1 (configuration not stated),9,10

# Next records
SMILES,NPYLR7 ag,NPYLR7 ag max-min
CN1CCN(c2cc(-c3ccc4ccccc4c3)nc3ccnn23)CC1,-8,-14
Cc1ccc(C(=O)NCC2(CO)CCOCC2)cc1NC(=O)C1CCCC1,2,3
CC1=C(C(=O)N2CCCCCC2)C2(CCCCC2)OC1=O,7,8
O=c1oc2ccc(Cl)cc2cc1-c1nnc(Nc2cccc(C(F)(F)F)c2)s1,-1,-8
CCCC(C)NC(=O)C1CCCNC1 (configuration not stated),-2,-8
CCC(CC)C(=O)Nc1nc(OCCN2CCCC2=O)cnc1-c1cccc(C(F)(F)F)c1,17,13
O=C(Cc1ccccc1)Nc1ccnn1C1CCN(CC2CCCCC2)CC1,0,-3
CC(C)(C)c1ccc(NC(=O)Cn2c3c(sc2=O)CCCC3)cc1,6,5
Cc1cccc(OCc2nc(CN(CCN3CCCCC3)C(=O)c3ccc(F)cc3)cs2)c1C,5,15
Fc1ccc(Nc2nc(N3CCOCC3)nc3[nH]ncc23)cc1,0,-3
CC(C)(C)OC(=O)N(Cc1ccc(Br)cc1F)C1CCC(C(=O)N2CCOC(COc3ccc(F)cc3)C2)CC1 (configuration not stated),7,5
CC(NC(=O)c1ccc(Nc2c(Oc3ccc(Cl)cc3)cnn(C)c2=O)cc1)c1ccccc1 (configuration not stated),-1,0
CCOc1ccc(-c2cc3c(=O)n(CC(=O)NCc4ccccc4OC)ccn3n2)cc1,13,8
CN1CCNC(=O)C12CCN(Cc1ccccc1OCc1ccccc1)CC2,6,4
CCC1(C(=O)NC(C)CC(C)(C)c2ccccc2)CCC1 (configuration not stated),4,-3
CNc1nc2c(c(=O)[nH]c(=O)n2C)n1CCCc1ccccc1,1,0
Cc1nn(C)c(C)c1CCC(=O)NCc1cnc2ccccn12,-3,-6
CC(=O)OC1(c2ccccc2)OC(=O)C(=O)/C1=C(/C(=O)Nc1ccccc1)c1ccccc1 (configuration not stated),-3,-4
CCOC(=O)N1CCN(C(c2ccc(Cl)cc2)c2c(O)cc(C)n(CCOC)c2=O)CC1 (configuration not stated),12,4
C=CC(C)(O)CN(CCN(C)C)Cc1ccc(OC)c(OC)c1 (configuration not stated),30,28
Oc1oc(-c2ccccc2)nc1C=Nc1cccnc1,-8,-12
CCC(C)N(Cc1c(-c2ccccc2)noc1N1CCc2ccccc2C1)CC(O)CN1CCOCC1 (configuration not stated),8,7
COc1cc(C=NNc2nc(C)cc(=O)[nH]2)ccc1OCCC(C)C,-4,-6
CCN(CC)CCN(C(=O)c1ccc([N+](=O)[O-])o1)c1nc2cc3c(cc2s1)OCCO3,-9,-11
COC(=O)c1ccn(-c2ccccc2)n1,14,14

# Arranged by length of the SMILES (lowest first): some entries from above
SMILES,NPYLR7 ag,NPYLR7 ag max-min
COC(=O)c1ccn(-c2ccccc2)n1,14,14
CCC1(C(=O)NC(C)CC(C)(C)c2ccccc2)CCC1 (configuration not stated),4,-3
Fc1ccc(Nc2nc(N3CCOCC3)nc3[nH]ncc23)cc1,0,-3
CCOC(=O)N1CCN(C(c2ccc(Cl)cc2)c2c(O)cc(C)n(CCOC)c2=O)CC1 (configuration not stated),12,4
CCN(CC)CCN(C(=O)c1ccc([N+](=O)[O-])o1)c1nc2cc3c(cc2s1)OCCO3,-9,-11

# The list goes on:
SMILES,NPYLR7 ag,NPYLR7 ag max-min
O=C1/C(=C/c2ccccc2O)SC(=S)N1Cc1ccccc1,-1,-2
CCOC(=O)C1=C(C)N=c2s/c(=C/c3ccccc3F)c(=O)n2C1c1ccc(Cl)cc1 (configuration not stated),-5,-10
COCc1nc(N2C[C@]3(C)C[C@H]2CC(C)(C)C3)c2cnn(C)c2n1,-1,-4
O=C(NCCCC1CCCCC1O)C1CC1c1ccc(F)cc1 (configuration not stated),-1,-3
CC(NC1CCS(=O)(=O)C1)c1ccc(C(C)(C)C)cc1 (configuration not stated),5,1
O=C(Nc1ccc(F)cc1F)Nc1cc([N+](=O)[O-])ccc1F,-5,-7
COc1ccc(CC(=O)N2CCOC(COc3ccc(Cl)c(C)c3)C2)cc1F (configuration not stated),22,31
COc1ccc2cc(C3CN(S(=O)(=O)c4cn(C)c(C)n4)CCO3)ccc2c1 (configuration not stated),-3,-5
CCCCSc1nc2c(c(=O)[nH]1)C(c1ccc(F)cc1)C(C(=O)OC(C)C)C(C)=N2 (configuration not stated),1,0
COc1ccc(S(=O)(=O)NCCc2ccc(F)cc2)cc1N1CCN(S(=O)(=O)c2ccc(NC(C)=O)cc2)CC1,17,29
COc1ccc(NS(=O)(=O)c2ccc3c(c2)OCCO3)cc1S(=O)(=O)N1CCCCC1,-1,64
CCc1cc2c(=O)n(NC(=O)c3nc(-c4ccco4)sc3C)cnc2s1,1,2
Cc1ccccc1OCc1nc(CN(C(=O)NC(C)(C)C)C2CC2)cs1,19,16
C=CCSc1nnc(NC(=O)c2ccc(C(F)(F)F)cc2)s1,5,6
Cc1c[nH]c(CNC(=O)C(C)(C)NC(=O)c2cccs2)c(C)c1=O,0,16
Cc1cc(C)c(S(=O)(=O)NCCCO)c(C)c1N(C)S(=O)(=O)c1ccccc1,12,11
O=C(CSc1nc2c(c(=O)n1-c1ccc(OC(F)(F)F)cc1)SCC2)N1CCCC1,-3,-8
COc1ccc(-c2ccccc2CO)nn1,2,1
COc1nc(-c2cccc(C(F)(F)F)c2)n(-c2ccc(NC(=O)c3ccc(C(C)(C)C)cc3)cc2)n1,-7,-12
CCCCC1C(=O)NCCN1C(=O)CNC(=O)c1ccc(C(C)(C)C)cc1 (configuration not stated),1,0
Cc1ccccc1OCCN(C)Cc1noc(CC(C)C)n1,2,1
COc1cc(NS(=O)(=O)c2cc(Cl)cc(Cl)c2)c(C(=O)O)cc1OC,0,-1
CCOc1ccccc1C(=O)Nc1sc(SCC(=O)NC)nc1-c1ccccc1,-4,-10
COC(=O)C1CCN(c2nc(C)cc(C)n2)CC1,6,4
COCCN(Cc1ccc([N+](=O)[O-])cc1)Cc1cccn1Cc1ccc(F)cc1,32,31
SMILES,NPYLR7 ag,NPYLR7 ag max-min
Cc1cc(C(=O)Nc2c(-c3ccc(F)cc3)ncn2C)c(C)s1,0,4
CC#CCOC(=O)C1=CCCN(C)C1,0,-9
CSc1nc(N2CCCC2)c2cnn(CCNC(=O)c3ccc(=O)[nH]c3)c2n1,6,4
CC1=C(C(N)=O)C(c2ccc(Cl)cc2)n2ncnc2N1 (configuration not stated),5,9
O=C(O)C1CN(c2ncccn2)CCN1C(=O)c1cccc2c1OCC2 (configuration not stated),-3,-4
CCCCCCCCCC(=O)N1CC(c2ccccc2)CC1=O (configuration not stated),-6,-7
O=C(/C=C/c1ccco1)NCCN1CCn2cc(OCc3ccccc3)c(=O)cc2C1=O,9,-1
CCNC(=S)NN=C(C)c1ccco1,-7,-10
O=S(=O)(NCCc1csc2nc(-c3ccccc3)nn12)c1ccccc1F,-6,-2
O=c1oc2c(CN3CCN(CCO)CC3)c(O)ccc2cc1-c1nc2ccccc2s1,66*,58*
CC1CN(C(=O)CSc2nc(Cl)cc(N3CCN(C(=O)c4ccc(F)cc4)C(C)C3)n2)CC(C)O1 (configuration not stated),-7,-6
CO/N=C(/C(=O)NCCOc1ccccc1)c1csc(NC=O)n1,3,1
CN(Cc1csc(-c2ccccc2)n1)Cc1nc(-c2cccs2)no1,3,1
CC(=O)O[C@@H](C)C(=O)NC/C=C(\C)CCC=C(C)C,-5,-10
Cc1nc(-c2ccccc2)ccc1C(=O)NC(C)C(C)n1cncn1 (configuration not stated),1,-3
COc1cc(OC)c(C2c3cccn3CCCN2Cc2cccc(C(F)(F)F)c2)cc1OC (configuration not stated),-1,8
COc1ccc2sc(C(=O)NC/C=C(\C)CCC=C(C)C)c(Cl)c2c1,-5,4
CC(C(N)=O)S(=O)(=O)Cc1sccc1Br (configuration not stated),4,1
CN=C1CC(C)(C)CC(=O)C1=C(O)CCC(=O)OC,11,3
Cc1cc(=O)[nH]c(NN=Cc2cc(Br)ccc2O)n1,-10,-13
CC(C)(C)OC(=O)N1CCC(CNCC2CCN(CC(F)(F)F)C2)CC1 (configuration not stated),-6,-5
O=C(c1cn(-c2ccccc2)nn1)N1CCCC1CCc1ccccc1 (configuration not stated),-10,-11
Cc1ccc(N2CC(C(=O)NNC(=O)COc3ccccc3C#N)CC2=O)cc1 (configuration not stated),1,-2
Nc1c2c(-c3cccs3)nc(NCc3ccccn3)nc2nn1-c1ccc(F)cc1,7,5
CC(CNC(=S)NC(=O)C1CC1)NC(=S)NC(=O)C1CC1 (configuration not stated),-14,-22

# Next section; it opens with the 7 that closed the last part.
SMILES,NPYLR7 ag,NPYLR7 ag max-min
CN=C1CC(C)(C)CC(=O)C1=C(O)CCC(=O)OC,11,3
Cc1cc(=O)[nH]c(NN=Cc2cc(Br)ccc2O)n1,-10,-13
CC(C)(C)OC(=O)N1CCC(CNCC2CCN(CC(F)(F)F)C2)CC1 (configuration not stated),-6,-5
O=C(c1cn(-c2ccccc2)nn1)N1CCCC1CCc1ccccc1 (configuration not stated),-10,-11
Cc1ccc(N2CC(C(=O)NNC(=O)COc3ccccc3C#N)CC2=O)cc1 (configuration not stated),1,-2
Nc1c2c(-c3cccs3)nc(NCc3ccccn3)nc2nn1-c1ccc(F)cc1,7,5
CC(CNC(=S)NC(=O)C1CC1)NC(=S)NC(=O)C1CC1 (configuration not stated),-14,-22
CCNc1ncc(C(=O)N2CCC(Cc3nn(C)c(=O)n3CC)CC2)cn1,29,18
CC(CNC(=O)c1ccncc1)c1ccc(F)c(F)c1 (configuration not stated),10,5
Cc1cccc(-n2cc(CN(C)C(=O)C(=O)c3ccco3)cn2)c1,-1,-5
Cc1sc2nc3c4ccccc4c(NCc4ccco4)nn3c(=O)c2c1C,-2,-3
CCc1ccc(C(NC(=O)c2cnc(C)cn2)C(C)C)cc1 (configuration not stated),11,12
Cc1ccc(C)c(Cn2ccnc2CN(CCN(C)C)C(=O)c2ccc(F)cc2)c1,5,7
C=CCN(Cc1csc(COc2cccc(C)c2C)n1)C(=O)c1ccccc1,25,27
O=C(CNC(=O)C1CC1)NCCc1ccc(OC2CCCC2)cc1,-6,-6
CCNc1nc(C)c(C(=O)N2CCC(c3nn(C)c(=O)n3CC)CC2)s1,6,5

# A run of entries taken from the entries so far:
SMILES,NPYLR7 ag,NPYLR7 ag max-min
O=C(CNC(=O)C1CC1)NCCc1ccc(OC2CCCC2)cc1,-6,-6
CCNc1nc(C)c(C(=O)N2CCC(c3nn(C)c(=O)n3CC)CC2)s1,6,5
